Source: PubChem BioAssay (ICCB-Longwood Screening Facility, Harvard Medical School)
HCMV UL50-53 inh: disrupts HCMV UL50-UL53 complex binding. HTRF UL50-UL53 interaction, normalized percent inhibition. inhibition, % (concentration not given with the values). 0.15% of 190,000 active;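 active = both replicates at 50% or more, plus weaker picks with an unusually low signal ratio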;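 note: stock transfer was 100 nL into about 20 µL; 0% = negative control wells and 100% = wells with untagged competitor protein; inactives centre near -12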
Sa growth inh: S. aureus growth inhibition; S. aureus RN4220 growth, OD600, 20 h, 42 °C; stronger effect = lower value; relative growth, % (test concentration not listed); 0.53% of 170,000 active; AID 720641;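 active = growth at 42 °C up to 50% and 20 or more points under that at 30 °C, or under 10% at both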;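 note: 300 nL library stock went into each well; scaled to the means of positive and negative controls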
GIV Gai3 FP: GIV-Galpha-i interaction inhibition; AID 1224905; percent of control (FP), % (concentration not given with the values); Galpha-i3/FITC-GIV peptide fluorescence polarization, 90 min; stronger effect = lower value; scaled: aluminum fluoride 0%, vehicle 100%; 0.42% of 210,000 active;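 active = replicate mean at 85% of control or lower, very high polarization wells dropped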;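 note: wells of about 15 µL received 100 nL stock; the first replicate is given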
Target sequence (P08753 whole entry, looked up): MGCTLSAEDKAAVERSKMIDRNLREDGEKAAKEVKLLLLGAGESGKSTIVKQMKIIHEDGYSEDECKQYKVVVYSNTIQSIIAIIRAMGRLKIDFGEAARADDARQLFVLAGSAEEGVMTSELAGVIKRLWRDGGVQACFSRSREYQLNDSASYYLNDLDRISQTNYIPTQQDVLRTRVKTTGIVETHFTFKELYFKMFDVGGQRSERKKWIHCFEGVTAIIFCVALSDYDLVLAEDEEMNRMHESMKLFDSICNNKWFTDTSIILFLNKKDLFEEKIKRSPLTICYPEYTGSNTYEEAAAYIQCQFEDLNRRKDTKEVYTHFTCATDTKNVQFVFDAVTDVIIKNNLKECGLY
Sa growth inh second temp: second read-out of Sa growth inh, no call of its own (marks repeat the call); relative growth, %; measured here: growth at 30 °C;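 optical density after 20 h as mean of two plates; 100% = untreated growth and lower means inhibition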
Active calls of the source: *; / = no result given; & = joins results of further samples.

Compound,HCMV UL50-53 inh,Sa growth inh,Sa growth inh second temp,GIV Gai3 FP
Cc1ccc(CN2c3ccccc3-c3nc(SCC(=O)NCc4ccccc4)ncc3S2(=O)=O)cc1,/,85.1,95.2,105.4
CCOC(=O)c1ccc(NC(=O)C(CC)Sc2nnc(C)n3c2cc2occc23)cc1 (centres undefined),-70.6,93.5,87.6,107.1
O=C(COC(=O)c1ccco1)Nc1nc2ccccc2s1,-3.5,97.4,70.0,102.6
COc1ccc(S(=O)(=O)N2CCC(c3nnc(-c4ccccc4C)o3)CC2)c(OC)c1,-20.6,106.9,61.8,108.3
COc1ccc(-c2noc(N3CCC(C(=O)N4CCN(c5cccc(OC)c5)CC4)CC3)n2)cc1,/,97.0,89.3,103.4
O=C(N/N=C/c1ccsc1)c1c[nH]c2ccccc12,-28.9,107.7,94.4,102.6
O=c1c2cnn(-c3ccccc3)c2ncn1C/C=C/c1ccccc1,/,100.2,93.6,100.2
CCC(NC(C)C)C(O)c1ccc(O)c(O)c1 (centres undefined),-59.2&-36.3&-29.3,85.3,74.1,96.2
Cc1nc2cccnc2n1-c1cc(C(=O)NCc2ccccc2Cl)ccc1Cl,-6.4,/,/,102.3
Cc1nc(-c2cc3ccccc3nc2NCC2CCCO2)no1 (centres undefined),-2.5,/,/,107.0
c1ccc(Cc2nn3c(CSc4ccccc4)nnc3s2)cc1,-11.8,/,/,108.0
CCOc1c(Nc2ccc(Cl)cc2C)c(=O)c1=O,-37.0,/,/,98.7
Cc1ccc(CC(C#N)Sc2nnc(-c3cccs3)n2C2CC2)cc1 (centres undefined),-14.5,73.4,56.6,/
CCOC(=O)c1c(C)[nH]c(C(=O)N2CCC(C(C)C(=O)NCc3ccc4c(c3)OCO4)CC2)c1C (centres undefined),-13.2,/,/,100.8
O=C(Cn1ccc2ccccc2c1=O)NCCC(=O)NC1CC1,/,86.7,89.3,110.6
CCOc1ccccc1N1C(=O)C2C(c3ccccc3)C=CC(c3ccccc3)C2C1=O (centres undefined),/,112.2,80.1,103.4
Cc1nn(C)cc1CNC(=O)c1cnn2c(C(F)F)cc(-c3ccccc3)nc12,-83.5,/,/,129.3
CC(C(O)c1ccccc1)N(C)S(=O)(=O)c1ccc2ccccc2c1 (centres undefined),-2.7,99.5,98.5,/
O=C(NC1CCCC1)c1ccc(CSCc2ccccc2Cl)o1,3.3,84.4,74.0,102.7
O=c1[nH][nH]c2cccc(F)c12,-5.2,101.9,94.9,108.6
Cn1cccc1/C=N/NC(=O)c1ccccn1,-78.4,103.4,88.0,97.5
CC1(C)CC(n2c(NCCO)nc3c(c2=O)C2(CCCCC2)Cc2ccccc2-3)CCO1 (centres undefined),-18.8,87.2,64.2,/
CCN(C(=O)CSc1nnc(-c2ccco2)n1N)c1cccc2ccccc12,-32.2,97.3,89.5,/
CC1CCCC(C)N1C(=O)C1=COCCO1 (centres undefined),3.3,91.4,99.4,/
O=C(Cn1nc(-c2ccc(Cl)cc2)c2ccccc2c1=O)Nc1cccc2ccccc12,/,130.6,74.7,100.9
COc1ccc(-c2noc(-c3ccccc3OCC(=O)Nc3nnc(C(C)C)s3)n2)cc1,-23.6,/,/,98.3
CCN(C(=O)Cc1cccs1)c1ccccc1,7.7,104.8,110.4,101.4
COc1ccc2c(Sc3ccccc3)c(C(=O)NC3CCCC3)[nH]c2c1,/,81.8,85.1,100.0
CCOC(=O)C1CCN(CC(=O)Nc2ccc(SC(F)F)cc2)CC1,-25.0,95.5,89.0,/
CCNc1nc(Nc2ccccc2)c2cnn(C)c2n1,1.8,/,/,108.4
CCCCC(=O)Nc1ccc(S(=O)(=O)Nc2nc(C)cc(C)n2)cc1,2.7,/,/,101.7
CS(=O)(=O)Cc1ccc(C(=O)Nc2ccnn2C2CCCC2)cc1,-4.0,112.7,102.1,/
COC(=O)c1ccc(COc2ccccc2Br)cc1,-18.0,95.6,84.0,/
CC(=O)NCc1ccc(C(=O)COC(=O)C(c2ccccc2)c2ccccc2)o1,-33.5,79.8,94.3,/
CCn1c(-c2ccc(Cl)cc2)cs/c1=N\N=C/c1ccc(O)cc1,-13.9,80.7,81.9,93.3
CCN(c1ccccc1)c1ncnc2c1cnn2-c1ccc(C)cc1,-9.0,77.9,57.1,108.9
CCS(=O)(=O)c1ccc(-c2ccc(NC(=O)c3ccccc3F)cc2)nn1,-11.9,/,/,103.1
O=C(c1ccc(I)cc1)N1CCN(c2ccc(O)cc2)CC1,-8.3,103.9,83.3,/
Cc1ccc(C2N(C)c3ccccc3-c3nc4ccccc4n32)o1 (centres undefined),-2.9,88.3,62.8,105.8
Cc1ccc(S(=O)(=O)N(Cc2nc3nc(C)cc(=O)n3[nH]2)c2ccc(F)cc2)cc1,-17.2,/,/,106.0
O=C1CC(c2ccc3c(c2)OCO3)c2c(-c3ccccc3)nn(-c3ccccc3)c2N1 (centres undefined),7.3,/,/,104.7
Cc1nn(C)c2sc(C(=O)NCc3ccc(-c4cccs4)cc3)cc12,0.1,98.0,49.0,99.9
O=C(NC1CCCc2ccccc21)C1CCN(C(=O)c2cccn2-c2cccnc2)CC1 (centres undefined),-37.3,/,/,108.6
CC(=O)N1CCN(C(=S)c2ccc(-c3ccc(C)cc3)o2)CC1,/,84.0,65.7,102.3
N/C(CC(=O)Nc1ccc(N2CCOCC2)cc1)=N\O,-22.6,85.8,88.0,/
C=CCNS(=O)(=O)Cc1ccccc1Cl,5.4,92.7,90.7,/
O=C(CN1C(=O)CSc2ccc(C(=O)N3CCCC3)cc21)NCc1ccccc1,-18.5,/,/,110.1
COc1ccc(CNC(=O)COCc2cc(-c3cccs3)on2)cc1OC,/,103.7,92.7,96.5
Cc1ccc(C)c(Cn2c(CCCNC(=O)C3CCCCC3)nc3ccccc32)c1,2.9,112.0,89.8,108.3
O=C1CSC2(CCCCC2)N1CCO,6.1,96.2,95.3,/

A different layout for 18 compounds above:
Order of values: HCMV UL50-53 inh | Sa growth inh | Sa growth inh second temp | GIV Gai3 FP
CCCCC(=O)Nc1ccc(S(=O)(=O)Nc2nc(C)cc(C)n2)cc1
  2.7 | / | / | 101.7
CS(=O)(=O)Cc1ccc(C(=O)Nc2ccnn2C2CCCC2)cc1
  -4.0 | 112.7 | 102.1 | /
COC(=O)c1ccc(COc2ccccc2Br)cc1
  -18.0 | 95.6 | 84.0 | /
CC(=O)NCc1ccc(C(=O)COC(=O)C(c2ccccc2)c2ccccc2)o1
  -33.5 | 79.8 | 94.3 | /
CCn1c(-c2ccc(Cl)cc2)cs/c1=N\N=C/c1ccc(O)cc1
  -13.9 | 80.7 | 81.9 | 93.3
CCN(c1ccccc1)c1ncnc2c1cnn2-c1ccc(C)cc1
  -9.0 | 77.9 | 57.1 | 108.9
CCS(=O)(=O)c1ccc(-c2ccc(NC(=O)c3ccccc3F)cc2)nn1
  -11.9 | / | / | 103.1
O=C(c1ccc(I)cc1)N1CCN(c2ccc(O)cc2)CC1
  -8.3 | 103.9 | 83.3 | /
Cc1ccc(C2N(C)c3ccccc3-c3nc4ccccc4n32)o1 (centres undefined)
  -2.9 | 88.3 | 62.8 | 105.8
Cc1ccc(S(=O)(=O)N(Cc2nc3nc(C)cc(=O)n3[nH]2)c2ccc(F)cc2)cc1
  -17.2 | / | / | 106.0
O=C1CC(c2ccc3c(c2)OCO3)c2c(-c3ccccc3)nn(-c3ccccc3)c2N1 (centres undefined)
  7.3 | / | / | 104.7
Cc1nn(C)c2sc(C(=O)NCc3ccc(-c4cccs4)cc3)cc12
  0.1 | 98.0 | 49.0 | 99.9
O=C(NC1CCCc2ccccc21)C1CCN(C(=O)c2cccn2-c2cccnc2)CC1 (centres undefined)
  -37.3 | / | / | 108.6
CC(=O)N1CCN(C(=S)c2ccc(-c3ccc(C)cc3)o2)CC1
  / | 84.0 | 65.7 | 102.3
N/C(CC(=O)Nc1ccc(N2CCOCC2)cc1)=N\O
  -22.6 | 85.8 | 88.0 | /
C=CCNS(=O)(=O)Cc1ccccc1Cl
  5.4 | 92.7 | 90.7 | /
O=C(CN1C(=O)CSc2ccc(C(=O)N3CCCC3)cc21)NCc1ccccc1
  -18.5 | / | / | 110.1
COc1ccc(CNC(=O)COCc2cc(-c3cccs3)on2)cc1OC
  / | 103.7 | 92.7 | 96.5

As a short view, some entries already given:
Compound,HCMV UL50-53 inh,Sa growth inh,Sa growth inh second temp,GIV Gai3 FP
Cc1ccc(C)c(Cn2c(CCCNC(=O)C3CCCCC3)nc3ccccc32)c1,2.9,112.0,89.8,108.3
O=C1CSC2(CCCCC2)N1CCO,6.1,96.2,95.3,/

Following part.
Compound,HCMV UL50-53 inh,Sa growth inh,Sa growth inh second temp,GIV Gai3 FP
COC(=O)CN(c1ccc(OC)cc1)S(=O)(=O)c1c(C)noc1C,-24.3,83.0,78.3,101.3
Nn1c(SCCCSc2nnc(-c3ccco3)n2N)nnc1-c1ccco1,-35.4,77.5,67.5,/
CCc1nnc(NC(=O)COc2ccccc2-c2nc(C)no2)s1,-9.3,/,/,98.9
Cc1ccc(C(=O)Nc2ccc3nc(SCC(=O)N4CCCc5ccccc54)sc3c2)cc1,-8.1,119.9,93.2,103.3
CCOC(=O)c1ccc2c(c1)N(C(CC)C(=O)Nc1ccccc1OC)C(=O)c1ccccc1S2 (centres undefined),/,97.4,87.0,104.8
CCOC(=O)Cc1cc(=O)[nH]c(/N=C(\N)Nc2cccc(Cl)c2)n1,-1.8,96.1,85.7,102.9
COc1ccc(NC(=O)C(C)n2nc(C)c3c(C)n(-c4ccccc4)nc3c2=O)cc1Cl (centres undefined),/,103.7,85.0,100.5
Cc1ccc(NC(=O)CSC2CC(=O)NC2=O)cc1 (centres undefined),9.5,72.2,92.8,108.0
CCCCN(CC)CCNC(=O)c1cn(CCOC)c(=O)c2c1c1ccccc1n2C,-4.1,108.5,95.7,108.4
CCC(C(=O)NCCN1CCN(C)CC1)N1C(=O)CCCc2ccccc21 (centres undefined),-13.0,/,/,109.4
COc1cc(C(=O)Nc2ccc(-n3c(C)nc4ccccc4c3=O)cc2)cc(OC)c1OC,/,117.2,94.5,96.1
CN1C(=O)/C(=c2/[nH][nH]c(=O)/c2=C\C=C\c2ccccc2)C(=O)c2ccccc21,17.2,75.6,60.3,/
CSc1nc2ccccc2c2nc3ccccc3n12,2.7,100.7,92.1,104.5
CC(C)CCNC(=O)c1ccc2c(c1)ncn2C1CCCC1,4.7,102.5,72.2,104.5
O=C1CN(CC(=O)Nc2ccc(SC(F)F)cc2)CCN1,-5.3,100.1,99.9,/
CC1=NN(C(=O)Cc2ccccc2)C(C)(C)C1,-8.4,90.3,89.7,/
CCc1cccc(NC(=O)Cn2c(=O)c(C(F)(F)F)nc3ccccc32)c1,/,92.4,86.3,100.3
Cc1ccc(NC(=O)CN2C(=O)C(C)SC(C)C2=O)cc1 (centres undefined),-12.1,99.0,92.5,98.4
Cc1sc(-n2cccc2CNCCC(C)C)c(C(=O)O)c1C,-32.2,/,/,104.6
CCn1cc(C(=O)N2CCCCC2)c2cc(OC)c(OC)cc2c1=O,/,110.3,83.3,97.9
O=S(=O)(c1cccc(F)c1)N1CC(OCc2cccc(F)c2)C1,-6.8,/,/,95.9
CCC(c1nnc(SCC(=O)Nc2ccc(C(=O)Nc3ccccc3OC)cc2)o1)N(C)C (centres undefined),-5.7,75.7,89.0,/
Cc1cnc(C(=O)NCc2ccc(F)cc2)cn1,3.3,96.1,93.0,/
O=C(COC(=O)c1ccco1)c1ccc(-n2nncc2-c2ccco2)cc1,-33.8,97.6,87.2,/
CCCNC(=O)C1CCN(C(=O)c2ccc(C(C)(C)C)cc2)CC1,-18.1,97.0,87.2,/
Cc1ccc(S(=O)(=O)Nc2ccc(-c3ccc(N4CCCC4)nn3)cc2)c(C)c1,-14.0,/,/,105.5
COc1cc(NC(=O)Cn2ccn(Cc3ccccc3OC)c(=O)c2=O)cc(OC)c1,-4.8,114.1,92.9,99.6
COc1ccc(N2C(=O)/C(=C\c3ccco3)N=C2SCC(=O)N2CCc3ccccc32)cc1Cl,-33.4,73.5,91.7,/
CSc1ncc(Cl)c(C(=O)NCc2ccccc2)n1,-30.6,102.0,84.7,/
Cc1cc(C)c2c(-n3cccc3)c(C(=O)NCC(C)c3ccccc3)sc2n1 (centres undefined),-12.0,113.3,95.2,97.6
CCOc1ccc(CNC(=O)c2cc(C)[nH]n2)cc1OC,-12.2,87.8,88.9,99.4
Cc1csc(/N=C/N(C)C)c1C#N,-46.7,91.3,86.2,105.2
COC(=O)C1=C(C)N=c2s/c(=C\c3ccc(OC(C)=O)cc3OC(C)=O)c(=O)n2C1c1ccc(OC)cc1 (centres undefined),-6.1,/,/,148.9
CC(=O)Nc1nonc1-c1nnc(SCC(=O)Nc2ccc(C)c(Cl)c2)n1-c1ccccc1,-23.4,100.9,70.4,99.5
COc1ccccc1NC(=O)N1CCN(c2nc3ccccc3n(Cc3ccccc3)c2=O)CC1,-36.2,/,/,105.1
CCN(CC)S(=O)(=O)c1ccc2oc(C(=O)N(C)Cc3ccccc3)c(C)c2c1,2.5,93.5,45.2,104.8
CSc1ncccc1C(=O)NCCOc1ccccc1,-25.3,88.5,95.9,/
